Screens: PubChem BioAssay, Broad Institute
UUG fidelity – yeast start codon fidelity modulation | 0.13% of 350,000 active | activity score, % at 18.7 µM | S. cerevisiae UUG-firefly luciferase reporter, luminescence/redox ratio;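 active = replicate mean at a twofold rise or more, about +100% in these data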;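 also: firefly luciferase made from a UUG start codon reports start codon fidelity; reporter light over untreated wells divided by growth signal over untreated wells; some hits fall short of that in this replicate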
Env fusion inh – blocks HIV Env-driven cell-cell fusion | AID 651610 | inhibition, % at 12.3 µM | HeLa-JRFL Env/CEM21 cell fusion, luciferase | 1.1% of 360,000 active;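 active = mean replicate inhibition score of at least 50 and every replicate individually at or above 50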;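 also: 0% = plate neutral controls and 100% = maraviroc near 300 nM; one replicate is shown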
Starred values were filed as active, the others as inactive; [ ] = another dose, or the depositor's remark. An excerpt; rates above refer to the full screens.

SMILES | UUG fidelity | Env fusion inh
COc1ccc(S(=O)(=O)Nc2ccc3c(c2)C(=O)N([C@H](C)CO)C[C@H](C)[C@@H](CN(C)Cc2ccc(Cl)c(Cl)c2)O3)cc1 | 7 | -8[16.7 µM]
O=C(C[C@@H]1C[C@H]2c3cc(NC(=O)C4CCOCC4)ccc3O[C@H]2[C@H](CO)O1)NCc1ccncc1 | -7 | 11[16.7 µM]
COc1cccc(-c2ccc([C@H]3[C@@H](CO)N(C(=O)c4ccccn4)[C@H]3C#N)cc2)c1 | 10 | -8[16.7 µM]
C[C@]12CCC3C4(C=CC5(C=C4C(=O)c4ccc(F)c(F)c4)C[C@@H](O)CC[C@]35C)C1CC[C@@]2(O)CN1CCC(C(N)=O)CC1 (stereo partly specified) | -4 | 5[16.7 µM]
O=C(Nc1ccccc1F)N[C@H]1CC[C@@H](CC(=O)N2CCCCC2)O[C@@H]1CO | -4 | -5[16.7 µM]
O=C(Nc1ccc(C(F)(F)F)cc1)N[C@H]1CC[C@@H](CCNC(=O)c2ccccc2F)O[C@@H]1CO | 14 | 2[16.7 µM]
Cc1noc(C)c1NC(=O)N(C)C[C@H]1Oc2ccc(NC(=O)NC(C)C)cc2C(=O)N([C@@H](C)CO)C[C@H]1C | -19 | -2[16.7 µM]
CC(=O)[C@@]12O[C@]3(COC[C@H](c4ccccc4)N3C1=O)[C@@H]1C(=O)N(c3ccccc3)C(=O)[C@@H]12 | -16 | 9[16.7 µM]
CO[C@@H]1CN(C)C(=O)c2cc(NC(=O)Cc3ccccc3)ccc2OC[C@@H](C)N(C)C[C@H]1C | 6 | 0[16.7 µM]
C[C@H](CO)N1C[C@H](C)[C@@H](CN(C)C(=O)c2ccccc2)Oc2cc(C3=CCCC3)ccc2S1(=O)=O | 4 | -2[16.7 µM]
C[C@@H]1CN([C@H](C)CO)C(=O)c2cc(NC(=O)CCC(F)(F)F)ccc2O[C@@H](C)CCCCO[C@@H]1CN(C)S(=O)(=O)c1ccc(F)cc1 | 5 | -23[16.7 µM]
CO[C@H]1CN(C)C(=O)c2cc(NS(C)(=O)=O)ccc2OC[C@H](C)N(CC2CCOCC2)C[C@@H]1C | 14 | -4[16.7 µM]
C[C@@H]1CN([C@@H](C)CO)S(=O)(=O)c2ccc(C#Cc3ccccc3)cc2O[C@H]1CN(C)C(=O)Cc1ccccn1 | -14 | 32[16.7 µM]
Cc1noc(C)c1NC(=O)N(C)C[C@H]1Oc2ccc(NS(=O)(=O)c3c(C)noc3C)cc2CC(=O)N([C@H](C)CO)C[C@H]1C | -5 | 6[16.7 µM]
C[C@H](CO)N1C[C@H](C)[C@H](CN(C)C(=O)Nc2ccc(C(F)(F)F)cc2)Oc2c(cccc2N(C)C)C1=O | 9 | 13[16.7 µM]
Cc1ccccc1-c1cnc2c(c1)C(=O)N([C@H](C)CO)C[C@H](C)[C@H](CN(C)C(=O)c1ccccc1)O2 | -10 | 13[16.7 µM]
Cc1ccc(S(=O)(=O)Nc2ccc3c(c2)C(=O)N([C@@H](C)CO)C[C@H](C)[C@@H](CN(C)S(=O)(=O)c2c(C)noc2C)OCCCC[C@H](C)O3)cc1 | 11 | 10[16.7 µM]
C[C@H]1CN([C@@H](C)CO)C(=O)c2cccc(NS(=O)(=O)c3cccs3)c2O[C@@H]1CN(C)Cc1ccc(Cl)c(Cl)c1 | 2 | 3[16.7 µM]
C[C@@H]1CN([C@H](C)CO)C(=O)c2cc(C#CC3(O)CCCC3)cnc2O[C@@H]1CN(C)C(=O)C1CCCCC1 | 1 | 8[16.7 µM]
COc1ccc(NC(=O)N(C)C[C@H]2Oc3ccc(NC(=O)Nc4cccc5ccccc45)cc3CC(=O)N([C@H](C)CO)C[C@@H]2C)cc1 | 6 | 6[16.7 µM]
C[C@@H]1CCCCO[C@@H](CN(C)C(=O)Nc2ccccc2)[C@@H](C)CN([C@@H](C)CO)C(=O)c2cc(NC(=O)Cc3ccccc3)ccc2O1 | -1 | -45[16.7 µM]
COc1ccc(S(=O)(=O)N(C)C[C@@H]2Oc3ccc(NC(=O)Nc4ccc5c(c4)OCO5)cc3C(=O)N([C@@H](C)CO)C[C@@H]2C)cc1 | -4 | 32[16.7 µM]
COc1ccc(CN(C)C[C@H]2OCCCC[C@H](C)Oc3ccc(NS(=O)(=O)c4cn(C)cn4)cc3C(=O)N([C@@H](C)CO)C[C@H]2C)cc1 | 5 | -6[16.7 µM]
CC(C)NC(=O)N(C)C[C@H]1Oc2ncc(C#Cc3ccccc3F)cc2C(=O)N([C@H](C)CO)C[C@H]1C | -5 | 7[16.7 µM]
C[C@H]1CN([C@@H](C)CO)C(=O)Cc2cc(NC(=O)Nc3cccc4ccccc34)ccc2O[C@H]1CN(C)CC1CC1 | 14 | 23[16.7 µM]
C[C@H](CO)N1C[C@H](C)[C@H](CN(C)S(=O)(=O)c2cccs2)Oc2ccc(NS(=O)(=O)c3ccccc3)cc2C1=O | 7 | 37[16.7 µM]
C[C@H]1CN([C@@H](C)CO)C(=O)Cc2cc(NS(=O)(=O)c3ccc(F)cc3)ccc2O[C@@H]1CN(C)S(=O)(=O)c1ccc(Cl)cc1 | 5 | -38[16.7 µM]
O=C(Cc1ccncc1)Nc1ccc2c(c1)[C@@H]1C[C@@H](CC(=O)NC3CCCCC3)O[C@H](CO)[C@@H]1O2 | -1 | -4[16.7 µM]
O=C(C[C@@H]1CC[C@H](NC(=O)C2CC2)[C@@H](CO)O1)NCCCN1CCOCC1 | -6 | 16[16.7 µM]
C[C@H](CO)N1C[C@H](C)[C@@H](CN(C)Cc2ccc(C(F)(F)F)cc2)OCCCC[C@H](C)Oc2ccc(NC(=O)c3ccccc3)cc2C1=O | 8 | 3[16.7 µM]
O=C1O[C@H](c2ccccc2)[C@H](c2ccccc2)N2[C@H]1[C@@H](C(=O)O)[C@]1(C(=O)Nc3ccccc31)[C@H]2c1ccc(O)cc1 | 27 | -1[16.7 µM]
O=C(Cc1ccccn1)NCC[C@H]1CC[C@@H](NC(=O)Nc2ccc(F)cc2)[C@@H](CO)O1 | -9 | -9[16.7 µM]
CNC[C@@H]1Oc2ccc(NC(=O)NC(C)C)cc2C(=O)N([C@H](C)CO)C[C@H]1C | -6 | -22[16.7 µM]
COc1ccccc1-c1cnc2c(c1)C(=O)N([C@H](C)CO)C[C@@H](C)[C@@H](CN(C)C)O2 | -11 | -15[16.7 µM]
COCC(=O)Nc1ccc2c(c1)[C@H]1C[C@@H](CC(=O)NCc3ccccc3)O[C@@H](CO)[C@H]1O2 | -16 | 7[16.7 µM]
Cc1noc(C)c1S(=O)(=O)Nc1ccc2c(c1)C(=O)N([C@H](C)CO)C[C@H](C)[C@@H](CN(C)C(=O)Nc1ccc(C(F)(F)F)cc1)OCCCC[C@@H](C)O2 | 4 | -20[16.7 µM]

An excerpt from above in order of molecular weight, highest first:
SMILES | UUG fidelity | Env fusion inh
C[C@]12CCC3C4(C=CC5(C=C4C(=O)c4ccc(F)c(F)c4)C[C@@H](O)CC[C@]35C)C1CC[C@@]2(O)CN1CCC(C(N)=O)CC1 (stereo partly specified) | -4 | 5[16.7 µM]
Cc1noc(C)c1NC(=O)N(C)C[C@H]1Oc2ccc(NC(=O)NC(C)C)cc2C(=O)N([C@@H](C)CO)C[C@H]1C | -19 | -2[16.7 µM]
C[C@H](CO)N1C[C@H](C)[C@@H](CN(C)C(=O)c2ccccc2)Oc2cc(C3=CCCC3)ccc2S1(=O)=O | 4 | -2[16.7 µM]

Record cards, from the list above:
Listed for Cc1ccc(S(=O)(=O)Nc2ccc3c(c2)C(=O)N([C@@H](C)CO)C[C@H](C)[C@@H](CN(C)S(=O)(=O)c2c(C)noc2C)OCCCC[C@H](C)O3)cc1 = UUG fidelity = 11; Env fusion inh = 10[16.7 µM]
Listed for C[C@H](CO)N1C[C@H](C)[C@@H](CN(C)Cc2ccc(C(F)(F)F)cc2)OCCCC[C@H](C)Oc2ccc(NC(=O)c3ccccc3)cc2C1=O = UUG fidelity = 8; Env fusion inh = 3[16.7 µM]

The list goes on.
SMILES | UUG fidelity | Env fusion inh
O=C(C[C@H]1C=C[C@@H](NC(=O)Nc2ccc(C(F)(F)F)cc2)[C@H](CO)O1)NCc1cccc(F)c1 | -1 | -4[16.7 µM]
CC(C)CC#Cc1ccc2c(c1)O[C@H](CN(C)C(=O)c1cccc(F)c1)[C@H](C)CN([C@@H](C)CO)S2(=O)=O | -9 | 11[16.7 µM]
Cc1noc(C)c1NC(=O)N(C)C[C@@H]1OCCCC[C@H](C)Oc2ccc(NC(=O)C3CCCCC3)cc2C(=O)N([C@H](C)CO)C[C@H]1C | -17 | -25[16.7 µM]
COc1cccc(S(=O)(=O)N(C)C[C@@H]2Oc3cc(C#CCN(C)C)ccc3S(=O)(=O)N([C@H](C)CO)C[C@H]2C)c1 | 11 | 20[16.7 µM]
CN(C)C(=O)c1ccc(-c2ccc([C@H]3[C@@H](C#N)N(C(=O)C4CCC4)[C@@H]3CO)cc2)cc1 | 5 | 24[16.7 µM]
CNC[C@@H]1Oc2ccc(NS(=O)(=O)c3ccc(F)cc3)cc2C(=O)N([C@@H](C)CO)C[C@@H]1C | -5 | 2[16.7 µM]
C/C=C/c1cnc2c(c1)C(=O)N([C@@H](C)CO)C[C@H](C)[C@@H](CN(C)S(=O)(=O)c1ccc(OC)cc1)O2 | 1 | 27[16.7 µM]
COc1cccc(S(=O)(=O)N[C@@H]2CC[C@@H](CC(=O)NCc3ccccc3)O[C@H]2CO)c1 | 0 | -6[16.7 µM]
C[C@H](CO)N1C[C@H](C)[C@H](CN(C)C(=O)c2ccc(F)cc2)Oc2ncc(/C=C/c3ccccc3)cc2C1=O | 14 | -65[16.7 µM]
C[C@H]1CN([C@@H](C)CO)S(=O)(=O)c2ccc(C#Cc3ccncc3)cc2O[C@H]1CN(C)C(=O)C1CCCCC1 | -2 | 27[16.7 µM]
COc1cccc(S(=O)(=O)N[C@H]2CC[C@H](CCn3cc(-c4ccccc4)nn3)O[C@@H]2CO)c1 | 8 | 10[16.7 µM]
O=C(CN1CCOCC1)NCC[C@H]1CC[C@H](NC(=O)Nc2ccc(Cl)cc2)[C@@H](CO)O1 | 6 | -12[16.7 µM]
Cc1noc(C)c1S(=O)(=O)Nc1ccc2c(c1)C(=O)N([C@H](C)CO)C[C@H](C)[C@H](CN(C)C(=O)c1ccncc1)OCCCC[C@H](C)O2 | 4 | -3[16.7 µM]
C[C@H](CO)N1C[C@H](C)[C@H](CN(C)C(=O)C2CCCCC2)Oc2ncc(C#CC(C)(C)O)cc2C1=O | -2 | -7[16.7 µM]
C[C@H]1CN([C@@H](C)CO)S(=O)(=O)c2ccc(C#CC(C)(C)O)cc2O[C@H]1CN(C)C(=O)CN(C)C | 2 | 2[16.7 µM]
Cc1ccc(S(=O)(=O)NCC[C@@H]2CC[C@@H](NC(=O)c3ccccn3)[C@H](CO)O2)cc1 | -12 | -2[16.7 µM]
C[C@@H]1CN([C@@H](C)CO)C(=O)c2cccc(N(C)C)c2O[C@@H]1CN(C)Cc1ccccc1 | -6 | -3[16.7 µM]
C[C@H](CO)N1C[C@H](C)[C@H](CN(C)C(=O)Nc2ccc3c(c2)OCO3)OCCCC[C@H](C)Oc2ccc(NC(=O)Nc3ccc(C(F)(F)F)cc3)cc2C1=O | -14 | 8[16.7 µM]
C[C@@H]1CCCCO[C@@H](CN(C)C(=O)Nc2ccccc2)[C@H](C)CN([C@@H](C)CO)C(=O)c2cc(NC(=O)Nc3ccc4c(c3)OCO4)ccc2O1 | 5 | -12[16.7 µM]
CCCc1cn(CC[C@H]2CC[C@@H](NC(=O)Nc3ccccc3F)[C@H](CO)O2)nn1 | 6 | 9[16.7 µM]
C[C@H](CO)N1C[C@H](C)[C@@H](CN(C)C(=O)CC2CC2)Oc2ncc(C#C[C@@H](C)O)cc2C1=O | 8 | 3[16.7 µM]
C[C@H]1CCCCO[C@@H](CN(C)Cc2ccc(Cl)c(Cl)c2)[C@@H](C)CN([C@@H](C)CO)C(=O)c2cc(NC(=O)Nc3ccc(C(F)(F)F)cc3)ccc2O1 | -3 | 51[16.7 µM]
COc1ccc(S(=O)(=O)Nc2ccc3c(c2)C(=O)N([C@H](C)CO)C[C@H](C)[C@@H](CN(C)C(=O)Nc2ccc(C(F)(F)F)cc2)OCCCC[C@@H](C)O3)cc1 | -17 | -13[16.7 µM]
COCC#Cc1cnc2c(c1)C(=O)N([C@H](C)CO)C[C@@H](C)[C@@H](CN(C)Cc1ccc(-c3ccccc3)cc1)O2 | -20 | 20[16.7 µM]
CC(C)NC(=O)Nc1ccc2c(c1)C(=O)N(C)[C@@H]1CC[C@@H](CC(=O)Nc3ccccc3)O[C@H]1CO2 | 8 | 14[16.7 µM]
C/C=C/c1cnc2c(c1)C(=O)N([C@@H](C)CO)C[C@H](C)[C@@H](CN(C)Cc1ccc3c(c1)OCO3)O2 | -2 | 0[16.7 µM]
C[C@@H]1CN([C@@H](C)CO)S(=O)(=O)c2ccc(C#C[C@@H](C)O)cc2O[C@H]1CN(C)C(=O)C1CC1 | -4 | -9[16.7 µM]
C[C@H]1CN([C@@H](C)CO)C(=O)c2cccc(NS(=O)(=O)c3ccccc3)c2O[C@H]1CN(C)C(=O)Nc1ccc2c(c1)OCO2 | 4 | -31[16.7 µM]
C[C@H](CO)N1C[C@H](C)[C@@H](CN(C)Cc2ccncc2)OCCCC[C@H](C)Oc2ccc(N(C)C)cc2C1=O | 2 | -3[16.7 µM]
C[C@H](CO)N1C[C@H](C)[C@H](CN(C)C(=O)Nc2ccc(F)cc2)Oc2c(NC(=O)C3CCOCC3)cccc2C1=O | -20 | 1[16.7 µM]
